AID504770 – growth inhibitors of E. coli YBA685 in a screen for V. cholerae RctB (chromosome II replication) inhibitors. E. coli YBA685 rctB-dependent plasmid, OD600 growth, 3 h; stronger effect = lower value. z-score (concentration not given with the values). hit rate 0.27% among 130,000;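 active means z-score under -2 on both plates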;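 further: wells of about 30 µL received 100 nL stock; score is relative to mean and SD of the test wells; the first replicate is given; strong numbers were not always called active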
CapD inh – inhibitors of Bacillus anthracis CapD enzyme. AID 492967. hit rate 0.23% among 140,000. z-score (concentration not given with the values). purified CapD enzyme, fluorescence intensity read-out; stronger effect = lower value; some hits fall short of the stated cut;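 active means z-score under -4 in either of two replicates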;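 further: stock transfer was 100 nL into about 40 µL; score is relative to mean and spread of the plate; one replicate is shown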
* hit, by the source's call; & = joins results of further samples.

`CN(C)/C=C(\C#N)S(=O)(=O)c1ccccc1` gave AID504770 3.15 and CapD inh -0.86.
Cc1onc(-c2c(F)cccc2Cl)c1C(=O)c1ccccc1O was read as AID504770 0.5 and CapD inh 0.73.
Screening N#CCc1c(C#N)c(N)nc(N2CCc3ccccc32)c1C#N returned AID504770 0.9.
C1CCC(N2CCN(C3CCCC3)CC2)CC1 was read as AID504770 -0.7 and CapD inh 0.165.
CCNc1nc(NCC)n2c(SCC(=O)c3ccc(C(C)C)cc3)nnc2n1 was read as CapD inh -0.11.
Screening CCn1c(CNC(C)=O)nc2ccccc21 returned AID504770 -0.65&0.6 and CapD inh -0.34&0.22.
CC1Cc2ccccc2N1C(=O)c1ccc2snnc2c1 (stereo not drawn) was read as AID504770 -0.25 and CapD inh -0.34.
Screening CC(=O)c1ccc(S(=O)(=O)N2CCN(c3ccc([N+](=O)[O-])cc3)CC2)cc1 returned CapD inh 0.66.
For C=CCn1c(-c2ccncc2)n[nH]c1=S the results were AID504770 -0.9 and CapD inh -1.08.
Screening O=C(CCCSc1nc2ccccc2[nH]1)N1CCN(S(=O)(=O)Cc2ccccc2)CC1 returned AID504770 0.3.
For CCOc1cc(C2NC(=O)c3c(sc4c3CCCC4)N2)ccc1OC(=O)c1cccs1 (stereo not drawn) the results were CapD inh 0.055.
For CC1=C(c2ccc(C)cc2)S(=O)(=O)N(CC(=O)N2CCN(c3ccccn3)CC2)C1=O the results were AID504770 -0.35 and CapD inh -0.04.
Screening O=C(NC=Nc1cccnc1)C1COc2ccccc2O1 (stereo not drawn) returned AID504770 -0.5 and CapD inh -0.34.
`CC(=O)OCC1C(COC(C)=O)C1(Cl)Cl` (stereo not drawn) gave AID504770 -0.05 and CapD inh -0.31.
`CCOC(=O)CSc1ncnc2c1cnn2-c1ccccc1` gave AID504770 -0.4 and CapD inh 1.39.
O=C(NCC1CCCO1)c1ccc2c(=O)n(CC3CCCO3)c(SCC(=O)N3CCCC3)nc2c1 (stereo not drawn) was read as CapD inh 0.485.
For CC1(C)CC(=O)C2=C(C1)N=C1c3ccccc3C(=O)C1C2c1cccc(Br)c1 (stereo not drawn) the results were AID504770 1.9 and CapD inh -0.83.
For NS(=O)(=O)c1cccc(C(=O)Nc2ccc(F)cc2)c1 the results were AID504770 -1 and CapD inh -0.605.
For O=C1CC(c2ccccc2F)c2c(ccc3ccccc23)N1 (stereo not drawn) the results were CapD inh 8.41.
Screening CC(C)N1CCN(c2ccc(OC[C@@H]3CO[C@@](Cn4cncn4)(c4ccc(Cl)cc4Cl)O3)cc2)CC1 returned CapD inh -0.825.
O=C1CSC(=S)N1CCc1ccc(Cl)cc1 was read as AID504770 -0.5 and CapD inh 0.225.
For Cc1ccc(S(=O)(=O)CCC(=O)Nc2ccc3c(c2)nc2n3CCCCC2)cc1 the results were AID504770 -0.1.
For CCOC(=O)C1=C(C)N=c2s/c(=C\c3cc([N+](=O)[O-])ccc3N3CCOCC3)c(=O)n2C1c1cc(OC)ccc1OC (stereo not drawn) the results were CapD inh -0.27.
C=CCNC(=O)C1CC(c2cc(OC)ccc2OC)=NO1 (stereo not drawn) was read as AID504770 -0.25 and CapD inh -0.98.
`O=C(CCCn1nc(-c2ccccc2)c2cc(Cl)ccc21)N1CCOCC1` gave AID504770 -0.3 and CapD inh 16.6.
Screening COc1ccc(-c2nc(-c3ccc4c(c3)C(=O)c3cc(-c5[nH]c(-c6ccc(OC)cc6)nc5-c5ccccc5)ccc3-4)c(-c3ccccc3)[nH]2)cc1 returned CapD inh 0.35.
C1=CCC(CN2CCN(CC3CC4C=CC3C4)CC2)CC1 (stereo not drawn) was read as AID504770 0.2.
Screening CC1=NN(c2ccccc2)C(=O)C1/C=C1\C(=O)NC(=O)N(c2ccccc2)C1=O (stereo not drawn) returned AID504770 -0.15 and CapD inh -0.19.
For O=C(NCCc1ccccc1)c1c(O)c2cccc3c2n(c1=O)CC3 the results were AID504770 -0.2.
Screening CCOC(=O)c1ccc(N2Cc3ccccc3C2=N)cc1 returned AID504770 0.7 and CapD inh 0.77.
Screening O=Nc1c(O)n(Cc2ccc(Cl)c(Cl)c2)c2ccc(Cl)cc12 returned CapD inh -0.56.
Screening Cc1c(CCC(=O)O)c(=O)oc2cc3occ(-c4ccc(Br)cc4)c3cc12 returned AID504770 -1.2 and CapD inh 10.6.
For O=C(NCc1ccccn1)C1CCCCC1 the results were AID504770 0.55.
O=c1ccc(-c2ccc(Cl)cc2)n[nH]1 was read as AID504770 -0.8 and CapD inh -1.09.
For COC(=O)CCc1nc2ccccc2nc1OC the results were AID504770 -1.2 and CapD inh 63.4.
Screening CN(Cc1ccccc1)S(=O)(=O)c1ccc(NC(=O)/C=C/c2ccco2)cc1 returned AID504770 -0.85 and CapD inh -0.46.
Screening Cc1cc(C)c2[nH]c(=O)c(CN(Cc3ccc(F)cc3)Cc3nnnn3CC3CCCO3)cc2c1 (stereo not drawn) returned AID504770 0.2.
`CC1CCC(C(C)C)C(NCc2ccccc2)C1` (stereo not drawn) gave AID504770 -0.25 and CapD inh -0.1.
COC(=O)Cc1ccc2c3ccccc3n(C)c2c1 was read as AID504770 1.1.
For O=C1CC(c2ccc(S(=O)(=O)NCc3ccco3)cc2)CN1 (stereo not drawn) the results were AID504770 0.3 and CapD inh -0.01.
Cc1cccc(Nc2nc(-c3ccccc3)no2)c1 was read as AID504770 -0.15 and CapD inh 0.66.
C=CCn1c(NC(=O)c2ccccc2)c(C(=O)OCC)sc1=S was read as AID504770 -0.05.
Cc1nn(-c2ccccc2)nc1C(=O)Oc1ccc(CC#N)cc1 was read as AID504770 -0.3 and CapD inh 0.315.
Screening COc1ccc(NC(=O)CN(C)C2CCCCC2)c(OC)c1 returned AID504770 -0.05.
Cc1ccc(-c2nn(CC(=O)N(C)C)c(=O)c3ccccc23)cc1 was read as AID504770 -0.7 and CapD inh 5.41.
For Cc1nc(-c2ccccc2)sc1C(=O)Nc1ccc(OC(F)(F)F)cc1 the results were CapD inh -0.135.
Screening COc1ccc(CNC(=O)CNCc2ccco2)cc1OC returned AID504770 0.
Screening CCOC(=O)NC(=S)Nc1ccc(C(C)(C)C)cc1 returned AID504770 -0.75 and CapD inh -0.26.
O=C1NC(=O)C(=Cc2cn(CCOc3ccc4c(c3)OCO4)c3ccccc23)C(=O)N1 was read as AID504770 0.55 and CapD inh 0.21.
`CCOc1ccc(NC(=O)C2=C(C)NC(=S)NC2c2ccc(OC)cc2OC)cc1` (stereo not drawn) gave CapD inh 0.02.
Screening Cn1c(=O)cc(SCC(=O)NCCN2CCOCC2)c2ccc(Cl)cc21 returned AID504770 0.5 and CapD inh -0.025.
CC(=O)NC1=NC(=O)/C(=C/c2ccc(-c3ccc4c(c3)COC4=O)o2)S1 was read as AID504770 -0.1 and CapD inh 4.66.
`C=CCNC(=O)c1ccc(CN2CCOCC2)cc1` gave AID504770 -0.65.
For O=C(Nc1c2c(nn1-c1ccc([N+](=O)[O-])cc1)CSC2)c1ccc(S(=O)(=O)N2CCCCC2)cc1 the results were CapD inh -0.235.
For O=C(CN1C(=O)c2ccccc2C1=O)Oc1cccc2cccnc12 the results were AID504770 -0.5 and CapD inh -0.53.
`CCOC(=O)c1sc(S(=O)(=O)Cc2ccccc2)c2c1CC(C)(C)CC2=O` gave AID504770 1.15 and CapD inh -0.84.
O=C(O)CSCC(=O)Nc1ccc2c(c1)OCO2 was read as AID504770 -0.05 and CapD inh 0.5.
`Brc1ccc(-c2cnc3n2CCCC3)cc1` gave AID504770 -1.25 and CapD inh 0.995.
Screening CCSc1nccc(C(F)(F)F)c1C(=O)Nc1ccc(Cl)cc1 returned AID504770 0.15 and CapD inh 0.315.
CC(C)n1cc(-c2ccccc2NC(=O)c2ccc(C(F)(F)F)cc2)cn1 was read as CapD inh -0.04.
`NCCOc1ccc(Cl)cc1` gave AID504770 -0.5 and CapD inh 1.79.
O=S(=O)(c1ccc2[nH]c3c(c2c1)CCCC3)N1CCCc2ccccc21 was read as AID504770 1.15 and CapD inh 0.61.
For O=C(OC1CCOC1=O)c1ccc(-c2nc3ccccc3s2)s1 (stereo not drawn) the results were AID504770 -0.3.
For O=C(CSCc1ccco1)Nc1nccs1 the results were AID504770 -0.2 and CapD inh 0.11.
`O=C(Nc1ccccc1)C1CC(=O)N(Cc2ccccc2)C(=Nc2ccc(F)cc2)S1` (stereo not drawn) gave CapD inh -0.24.
c1csc(-c2nc3ccccc3s2)c1 was read as CapD inh 96.9.
Screening COc1cc2c(c(O)c1OC)C(=O)C(OC)CCC2 (stereo not drawn) returned AID504770 0.1.
CCOC(=O)c1cc(=O)c2ccccc2o1 was read as AID504770 0.55 and CapD inh -0.2.
`CCOC(=O)c1ccc(N2CCCCC2)c(NS(=O)(=O)c2cc(Cl)c(Cl)cc2Cl)c1` gave CapD inh -0.22.
`O=C(NCC1CCCO1)C1CCCN(C(=O)N2CCOc3ccccc32)C1` (stereo not drawn) gave AID504770 -0.1 and CapD inh 0.52.
Screening O=C(NC1CCS(=O)(=O)C1)c1sc2ccccc2c1Cl (stereo not drawn) returned AID504770 -0.1 and CapD inh 0.85.
O=S(=O)(/C=C/c1ccc(Br)cc1)NCc1ccc(Cl)cc1 was read as CapD inh -0.16.
Screening Cc1ccc2c(c1)C(=O)CC(c1cc(Br)cc3c1OCOC3)O2 (stereo not drawn) returned AID504770 -0.35 and CapD inh 0.315.
For c1ccc(-c2csc(-c3cccs3)n2)cc1 the results were AID504770 -0.3 and CapD inh 14.8.
For Cc1ccc(C2=C/C(=C/c3ccc(-c4cccc(C(=O)O)c4)o3)C(=O)O2)cc1 the results were AID504770 0.35 and CapD inh 0.35.
For O=C(COC(=O)CSc1ncnc2sccc12)Nc1nnc(-c2ccccc2)o1 the results were AID504770 0.1.
For CNC(=O)C1CCN(c2nc3ccccc3n3cccc23)CC1 the results were AID504770 -0.45 and CapD inh -2.54.
`O=C(Nc1ccccc1)c1ccc(=O)[nH]n1` gave AID504770 -0.95.
Screening COc1cccc2c1c(NC(=O)Nc1ccc(F)cc1F)nn2C returned AID504770 1.15 and CapD inh 0.85.
`COc1ccc(S(=O)(=O)c2n[nH]n3c2nc(=O)c2ccccc23)cc1` gave AID504770 0.3 and CapD inh 5.39.
`COc1ccc(-n2nc(C(=O)NCC(=O)Nc3cccc(OC)c3)c3ccccc3c2=O)cc1` gave CapD inh -1.23.
Screening CCN(CC)Cc1c(O)ccc2oc(C)c(C(=O)Nc3ccccc3C)c12 returned AID504770 -0.3 and CapD inh 0.515.
`CC(C)CN(C(=O)c1ccc(=O)n(C)n1)c1nc2ccccc2s1` gave AID504770 -0.3.
`CNc1ccccc1C(=O)N/C(N)=N\c1nc(C)c2ccccc2n1` gave AID504770 -0.5 and CapD inh 3.66.
`CSC1=NC=C(C#N)C2=NC(c3ccc4c(c3)OCO4)NN12` (stereo not drawn) gave CapD inh -1.15.
`Cc1cc(C)c2ccc(N)nc2n1` gave CapD inh 99.7.
Screening COc1cc(C2C(C(=O)OC3CCCC3)=C(C)NC3=C2C(=O)CC(c2cccs2)C3)cc([N+](=O)[O-])c1O (stereo not drawn) returned CapD inh -1.41.
For CC(=O)Oc1cccc(C2C3=C(CC(C)(C)CC3=O)Nc3ccccc3N2C(=O)c2ccccc2)c1 (stereo not drawn) the results were CapD inh -0.795.
For CCOC(=O)N1CCN(S(C)(=O)=O)CC1 the results were AID504770 -1.1 and CapD inh -0.005.
Screening CCOC(=O)N1CCc2c(sc3c2C(=O)NC(c2ccccc2)N3)C1 (stereo not drawn) returned AID504770 -0.7 and CapD inh -0.38.
O=C(CCc1nc(-c2ccccc2)no1)Nc1ccccc1 was read as AID504770 0.15 and CapD inh 0.11.
Screening CC(C(=O)Nc1ccc(S(N)(=O)=O)cc1)N1C(=O)CCC1=O (stereo not drawn) returned AID504770 -0.8 and CapD inh 1.2.
CC(C)c1ccc(NC(=O)CN2C(=O)c3ccccc3Sc3ccc(C(=O)N4CCCC4)cc32)cc1 was read as AID504770 0.3 and CapD inh 0.075.
For Cc1cc(=O)[nH]c(SCC(=O)Nc2c(C)n(C)n(-c3ccccc3)c2=O)n1 the results were AID504770 -0.45.
For Cc1ccc(CN2CCN(N=Cc3ccc(Br)s3)CC2)c(C)c1 the results were AID504770 -0.75 and CapD inh -0.145.
CCCC(=O)Nc1sc2c(c1C#N)CC(C)(C)NC2(C)C was read as AID504770 -0.75 and CapD inh 0.19.
`C1=C(N2CCOCC2)Cc2ccccc21` gave AID504770 -1.3 and CapD inh 0.33.
For COc1ccc(/C(N)=N/OC(=O)COc2ccccc2C)cc1OC the results were AID504770 1.4 and CapD inh -0.26.

Some of the compounds tested (hit frequency here may not be typical).
